Bioassay records deposited in PubChem BioAssay by Broad Institute.
FGF22 binding – FGF22 (human) thermal shift binding; Q9HCT0; recombinant FGF22 thermal shift, SYPRO orange fluorescence; percent of sucrose octasulfate shift, DMSO zero; calls only at 9.99 µM; 340,000 tested, 1.5% active;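 active = melting point raised past a set limit in the mean and every replicate; three in four hits are not shown here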
Target sequence (Q9HCT0 whole entry, looked up): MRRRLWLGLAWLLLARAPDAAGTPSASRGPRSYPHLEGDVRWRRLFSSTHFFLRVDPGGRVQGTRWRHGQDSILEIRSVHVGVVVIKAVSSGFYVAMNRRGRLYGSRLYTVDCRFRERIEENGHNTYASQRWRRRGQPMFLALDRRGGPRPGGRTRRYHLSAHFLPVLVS
Calls only; i = inactive; + = active, no number. Not all compounds are listed; rates above refer to the full screens.

FGF22 binding	canonical_smiles
i	O=C(C1CC1)N1CC[C@H]2[C@H](CO)Nc3ccc(-c4ccc(F)cc4)cc3[C@H]21
i	Cc1noc(C)c1S(=O)(=O)Nc1ccc2c(c1)CC(=O)N([C@H](C)CO)C[C@@H](C)[C@H](CN(C)Cc1ccc(C(=O)Nc3ccccc3N)cc1)O2
i	CO[C@@H]1CN(C)C(=O)c2cc(NC(C)=O)ccc2OC[C@@H](C)N(Cc2cc(F)ccc2F)C[C@@H]1C
i	C[C@@H]1CCCCO[C@H](CN(C)S(C)(=O)=O)[C@@H](C)CN([C@@H](C)CO)C(=O)c2cc(NS(=O)(=O)c3ccc(F)cc3)ccc2O1
i	C[C@H]1CN([C@@H](C)CO)C(=O)c2cccc(NC(=O)c3ccc(-c4nccs4)cc3)c2O[C@@H]1CN(C)S(=O)(=O)c1ccc(Cl)cc1
i	C[C@@H]1CN([C@H](C)CO)C(=O)c2cc(NC(=O)Cc3ccccc3)ccc2O[C@@H](C)CCCCO[C@@H]1CN(C)C(=O)Cc1ccccc1
i	O=C(C[C@H]1CC[C@@H]2NC[C@H](O)COC[C@H]2O1)NC1Cc2ccccc2C1
i	CNC[C@@H]1OCCCC[C@H](C)Oc2ccc(NC(=O)c3ccccc3)cc2C(=O)N([C@@H](C)CO)C[C@@H]1C
i	O=C(C[C@@H]1CC[C@H]2[C@@H](COC[C@@H](O)CN2C(=O)Nc2ccc(Cl)cc2)O1)NC1Cc2ccccc2C1
i	C[C@@H]1CN([C@H](C)CO)C(=O)Cc2cc(NC(=O)CCN3CCOCC3)ccc2O[C@@H]1CN(C)Cc1ccc(C(F)(F)F)cc1
i	O=C(c1cccnc1)N1CC2(C1)[C@@H](c1ccccc1)[C@H](CO)N2C(=O)C1CCC1
i	CN1C(=O)c2cc(NS(C)(=O)=O)ccc2OC[C@H]2O[C@@H](CC(=O)NC3CCCCC3)CC[C@H]21
i	COc1ccc(NC(=O)Nc2ccc3c(c2)CC(=O)N([C@@H](C)CO)C[C@H](C)[C@H](CN(C)C(=O)Nc2cccc4ccccc24)O3)cc1
i	CNC[C@H]1Oc2ncc(-c3ccc(C)cc3)cc2C(=O)N([C@H](C)CO)C[C@H]1C
i	C[C@@H]1CN([C@@H](C)CO)C(=O)c2cc(N(C)C)ccc2O[C@@H](C)CCCCO[C@@H]1CN(C)C(=O)CCC(F)(F)F
i	N#C[C@H]1[C@@H](c2ccccc2C2=CCCC2)[C@@H](CO)N1C(=O)C1CCC1
i	C[C@H]1CN([C@@H](C)CO)C(=O)CCCn2nncc2CO[C@@H]1CN(C)Cc1ccc(O)cc1
i	C[C@@H]1CCCCO[C@H](CN(C)C(=O)c2ccccc2)[C@H](C)CN([C@@H](C)CO)C(=O)c2cc(NS(C)(=O)=O)ccc2O1
i	C[C@@H]1CN([C@H](C)CO)C(=O)c2cc(NC(=O)CCCCCC(=O)Nc3ccccc3N)ccc2O[C@H]1CN(C)C(=O)Nc1ccc2c(c1)OCO2
i	C[C@@H]1CN([C@H](C)CO)C(=O)Cc2cc(NS(=O)(=O)c3cn(C)cn3)ccc2O[C@@H]1CN(C)Cc1ccc(C(=O)O)cc1
i	COc1ccc(NC(=O)Nc2ccc3c(c2)CC(=O)N([C@@H](C)CO)C[C@H](C)[C@H](CN(C)C(=O)NC2CCCCC2)O3)cc1
i	C[C@H](CO)N1C[C@H](C)[C@H](CN(C)C(=O)Nc2cccc3ccccc23)OCCCC[C@H](C)Oc2ccc(NC(=O)Nc3ccc(F)cc3)cc2C1=O
i	Cc1ccc(S(=O)(=O)Nc2ccc3c(c2)C(=O)N([C@H](C)CO)C[C@@H](C)[C@H](CN(C)S(=O)(=O)c2cn(C)cn2)OCCCC[C@@H](C)O3)cc1
i	CCCN1C[C@@H](C)[C@@H](OC)CN(C)C(=O)c2cc(NC(=O)c3cccc(F)c3)ccc2OC[C@H]1C
i	C[C@H](CO)N1C[C@H](C)[C@@H](CN(C)S(=O)(=O)c2ccccc2)Oc2ccc(NS(=O)(=O)c3cccs3)cc2CC1=O
i	C[C@H](NC(=O)C[C@H]1CC[C@H](NC(=O)Nc2ccc3c(c2)OCO3)[C@@H](CO)O1)c1ccccc1
i	C[C@H](O)C#Cc1cnc2c(c1)C(=O)N([C@@H](C)CO)C[C@@H](C)[C@@H](CN(C)C(=O)Nc1ccc(F)cc1)O2
i	CC(C)c1cn(CC[C@@H]2CC[C@H](NC(=O)C3CCCCC3)[C@H](CO)O2)nn1
i	C#CCNC(=O)c1cc2cccnc2nc1N
i	C[C@H](CO)N1C[C@H](C)[C@@H](CN(C)C(=O)C2CCOCC2)Oc2ncc(C3=CCCCC3)cc2C1=O
i	C[C@H](CO)N1C[C@H](C)[C@H](CN(C)Cc2ccncc2)Oc2c(NS(=O)(=O)c3ccc(F)cc3)cccc2C1=O
i	CN1c2ccc(-c3cccc(C#N)c3)cc2[C@H]2[C@H](CCN2C(=O)CN2CCOCC2)[C@H]1CO
i	CCC(=O)Nc1ccc2c(c1)OC[C@H](C)N(C(=O)C1CCC1)C[C@@H](C)[C@H](OC)CN(C)C2=O
i	CC(C)c1[nH]nc2c1C(c1ccccc1)N(Cc1ccccc1)C2=O (stereo not drawn)
i	C[C@H](CO)N1C[C@H](C)[C@@H](CN(C)Cc2ccc(C(F)(F)F)cc2)Oc2ccc(NC(=O)Nc3ccc(F)cc3)cc2CC1=O
i	COC(=O)C1=C(C)N(Cc2ccccc2)C(=S)NC1c1cccc(Br)c1 (stereo not drawn)
i	CO[C@H](CN(C)C(=O)c1ccccc1F)[C@@H](C)CN([C@H](C)CO)S(=O)(=O)c1ccccc1
i	CC(C)NC(=O)Nc1ccc2c(c1)C(=O)N([C@H](C)CO)C[C@@H](C)[C@@H](CN(C)C)OCCCC[C@@H](C)O2
i	O=C(C[C@@H]1CC[C@H]2[C@@H](COC[C@H](O)CN2Cc2cccc(F)c2)O1)NCCc1ccncc1
i	CN(C)CC(=O)Nc1ccc2c(c1)[C@H]1C[C@@H](CC(=O)N3CCOCC3)O[C@H](CO)[C@H]1O2
i	COc1ccc(NC(=O)N(C)C[C@H]2Oc3ccc(NC(=O)Nc4c(C)noc4C)cc3C(=O)N([C@@H](C)CO)C[C@H]2C)cc1
i	CN(C)CC(=O)Nc1ccc2c(c1)[C@@H]1C[C@@H](CC(=O)NCc3ccccc3)O[C@H](CO)[C@@H]1O2
i	Cc1cc(C(=O)Nc2cccc3c2O[C@@H](CN(C)C(=O)Nc2ccc(F)cc2)[C@H](C)CN([C@H](C)CO)C3=O)n(C)n1
i	C[C@H](CO)N1C[C@H](C)[C@H](CN(C)C)Oc2ccc(NC(=O)CCC(F)(F)F)cc2CC1=O
i	C[C@@H]1CN([C@@H](C)CO)C(=O)c2cc(C3=CCCC3)cnc2O[C@H]1CN(C)C(=O)C1CCC1
i	O=C(NCCc1ccccc1Cl)[C@@H]1CCCN1C(=O)[C@@H](NS(=O)(=O)c1ccc(F)cc1F)C1CCCCC1
i	COc1ccccc1CN1[C@@H](CO)[C@@H]2c3ccccc3N(C(=O)c3ccncc3)C[C@@H]21
i	C[C@@H]1CN([C@H](C)CO)C(=O)c2cc(NC(=O)Nc3ccc4c(c3)OCO4)ccc2O[C@H]1CN(C)Cc1ccc2c(c1)OCO2
i	O=C(C1CC1)N1CCCCN2[C@@H](CO)[C@@H](c3ccc(C#CC4CCCC4)cc3)[C@@H]2C1
i	Cc1noc(C)c1NC(=O)N[C@H]1CC[C@H](CCNC(=O)C2CCCCC2)O[C@H]1CO

Part of the list above, as labelled records.
> CC(C)NC(=O)Nc1ccc2c(c1)C(=O)N([C@H](C)CO)C[C@@H](C)[C@@H](CN(C)C)OCCCC[C@@H](C)O2
- FGF22 binding: i
> O=C(C[C@@H]1CC[C@H]2[C@@H](COC[C@H](O)CN2Cc2cccc(F)c2)O1)NCCc1ccncc1
- FGF22 binding: i
> CN(C)CC(=O)Nc1ccc2c(c1)[C@H]1C[C@@H](CC(=O)N3CCOCC3)O[C@H](CO)[C@H]1O2
- FGF22 binding: i
> COc1ccc(NC(=O)N(C)C[C@H]2Oc3ccc(NC(=O)Nc4c(C)noc4C)cc3C(=O)N([C@@H](C)CO)C[C@H]2C)cc1
- FGF22 binding: i

(more compounds)
FGF22 binding	canonical_smiles
i	C[C@H](CO)N1C[C@H](C)[C@H](CN(C)S(=O)(=O)c2cn(C)cn2)Oc2ccc(NC(=O)C3CCCCC3)cc2CC1=O
i	C[C@@H]1CN([C@@H](C)CO)C(=O)c2cccc(NS(=O)(=O)c3cccs3)c2O[C@@H]1CN(C)S(=O)(=O)c1cccs1
i	Cc1ccc(S(=O)(=O)N(C)C[C@@H]2Oc3ccc(N(C)C)cc3CC(=O)N([C@H](C)CO)C[C@H]2C)cc1
i	C[C@H](CO)N1C[C@H](C)[C@@H](CN(C)Cc2ccncc2)OCCCC[C@H](C)Oc2ccc(NC(=O)c3ccccc3)cc2C1=O
i	C[C@H](CO)N1C[C@H](C)[C@@H](CN(C)C(=O)Nc2ccc3c(c2)OCO3)Oc2cc(C#Cc3cccnc3)ccc2S1(=O)=O
i	CNC[C@H]1Oc2ccc(N(C)C)cc2C(=O)N([C@H](C)CO)C[C@@H]1C
i	COc1ccc(-c2cn(CC[C@H]3CC[C@H](N)[C@@H](CO)O3)nn2)cc1
i	C/C=C/c1ccc([C@H]2[C@H](CO)N3C(=O)CN(C(=O)Nc4ccc(F)cc4)C[C@@H]23)cc1
i	COc1ccccc1CNC(=O)C[C@@H]1CC[C@H]2[C@@H](COc3ccc(NS(=O)(=O)c4ccc(C)cc4)cc3C(=O)N2C)O1
i	CS(=O)(=O)N1[C@@H]2Cn3c(ccc(-c4ccc(F)cc4)c3=O)[C@H]1[C@@H](C(=O)N1CCOCC1)[C@@H]2CO
i	CCS(=O)(=O)N1CCCCN2[C@@H](CO)[C@H](c3ccc(-c4ccccc4F)cc3)[C@@H]2C1
i	O=C(C[C@H]1C=C[C@@H](NC(=O)C2CCC2)[C@@H](CO)O1)NC1CCC1
i	Cc1ccccc1-c1ccc([C@H]2[C@H]3CN(C(=O)c4cccnc4)CCCCN3[C@H]2CO)cc1
i	O=C(C[C@H]1CC[C@@H]2NC[C@@H](O)COC[C@H]2O1)NC1Cc2ccccc2C1
i	C[C@H](CO)N1C[C@H](C)[C@@H](CN(C)Cc2ccncc2)Oc2ncc(C3=CCCCC3)cc2C1=O
i	Cc1noc(C)c1NC(=O)N(C)C[C@H]1Oc2ccc(NC(=O)Nc3ccc(C(F)(F)F)cc3)cc2CC(=O)N([C@@H](C)CO)C[C@H]1C
i	C[C@@H]1CN([C@@H](C)CO)C(=O)c2cc(C#CC3CCCC3)cnc2O[C@@H]1CN(C)C(=O)C1CCCCC1
i	Cc1noc(C)c1NC(=O)N(C)C[C@@H]1Oc2ccc(NC(=O)CCCCCC(=O)Nc3ccccc3N)cc2C(=O)N([C@@H](C)CO)C[C@H]1C
i	CC(=O)N1[C@@H]2Cn3c(ccc(C4=CCCCC4)c3=O)[C@H]1[C@@H](C(=O)NC1CCCC1)[C@@H]2CO
i	N#C[C@@H]1[C@@H](c2ccccc2-c2cccc(F)c2)[C@H](CO)N1C(=O)C1CCOCC1
i	COCC(=O)N(C)C[C@@H]1Oc2cc(C3=CCCCC3)ccc2S(=O)(=O)N([C@@H](C)CO)C[C@@H]1C
i	O=C(NCC[C@H]1CC[C@H](NC(=O)C2CCCCC2)[C@@H](CO)O1)Nc1ccc(Cl)cc1
i	C[C@@H]1CCCCO[C@@H](CN(C)C(=O)NC2CCCCC2)[C@H](C)CN([C@@H](C)CO)C(=O)c2cc(NC(=O)Nc3ccc4c(c3)OCO4)ccc2O1
i	O=C(C[C@@H]1CC[C@H]2[C@@H](COC[C@H](O)CN2Cc2ccc3c(c2)OCO3)O1)N1CCOCC1
+	O=C(Nc1ccc(Cl)cc1)N[C@H]1CC[C@H](CCNC(=O)c2cc(Cl)cc(Cl)c2)O[C@@H]1CO

Shown bar-delimited: part of the list above.
smiles | FGF22 binding
C[C@@H]1CCCCO[C@@H](CN(C)C(=O)NC2CCCCC2)[C@H](C)CN([C@@H](C)CO)C(=O)c2cc(NC(=O)Nc3ccc4c(c3)OCO4)ccc2O1 | i
O=C(C[C@@H]1CC[C@H]2[C@@H](COC[C@H](O)CN2Cc2ccc3c(c2)OCO3)O1)N1CCOCC1 | i
O=C(Nc1ccc(Cl)cc1)N[C@H]1CC[C@H](CCNC(=O)c2cc(Cl)cc(Cl)c2)O[C@@H]1CO | +

The listing continues:
FGF22 binding	canonical_smiles
i	O=C(Nc1ccc2c(c1)[C@@H]1C[C@@H](CC(=O)N3CCOCC3)O[C@H](CO)[C@@H]1O2)c1cccnc1
i	C[C@@H]1CN([C@H](C)CO)C(=O)c2cc(NC(=O)CCCCCC(=O)Nc3ccccc3N)ccc2O[C@H]1CN(C)S(C)(=O)=O
i	C[C@H]1CN([C@@H](C)CO)C(=O)c2cc(Br)cnc2O[C@H]1CN(C)C(=O)Nc1ccc(F)cc1
i	O=C(O)C[C@@H]1C=C[C@H](NC(=O)Nc2cc(F)ccc2F)[C@@H](CO)O1
i	CO[C@@H]1CC[C@@H]2CCN(C)C(=O)CCCN(C)C(=O)c3cccc(C#N)c3OC[C@@H]1O2
i	Cc1noc(C)c1S(=O)(=O)N(C)C[C@@H]1OCCCC[C@@H](C)Oc2ccc(NS(=O)(=O)c3ccc(Cl)cc3)cc2C(=O)N([C@H](C)CO)C[C@H]1C
i	CO[C@H](CN(C)S(=O)(=O)c1ccc(F)cc1)[C@H](C)CN([C@H](C)CO)S(=O)(=O)c1cccc(Cl)c1
i	CCC(=O)N1[C@H](CO)[C@H](c2ccccc2)[C@@H]1CN(CC)C(=O)c1cccc(F)c1
i	CN1C[C@@H]2[C@H](c3ccccc31)[C@@H](CO)N2Cc1ccccc1
i	C[C@@H]1CN([C@H](C)CO)C(=O)c2cc(NC(=O)Nc3ccc(C(F)(F)F)cc3)ccc2O[C@@H](C)CCCCO[C@H]1CN(C)Cc1ccc(C(F)(F)F)cc1

Records above that bear a hit mark in FGF22 binding:
FGF22 binding	canonical_smiles
+	O=C(Nc1ccc(Cl)cc1)N[C@H]1CC[C@H](CCNC(=O)c2cc(Cl)cc(Cl)c2)O[C@@H]1CO
